UCH37 DUB inh: inhibitors of human UCH37 deubiquitinase, primary screen, biochemical, Ub-AMC cleavage, fluorescence; Ubiquitin carboxyl-terminal hydrolase isozyme L5 (Homo sapiens), Q9Y5K5; purified proteasome/UCH37; inhibition, % (concentration not given with the values); 0.33% of 330,000 active; AID 588478, 2011;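 active = mean of two replicates above 20%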;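 also: 0% = compound-free wells with enzyme and 100% = wells lacking proteasome; stock transfer was 100 nL into about 20 µL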
Target sequence (Q9Y5K5 whole entry, looked up): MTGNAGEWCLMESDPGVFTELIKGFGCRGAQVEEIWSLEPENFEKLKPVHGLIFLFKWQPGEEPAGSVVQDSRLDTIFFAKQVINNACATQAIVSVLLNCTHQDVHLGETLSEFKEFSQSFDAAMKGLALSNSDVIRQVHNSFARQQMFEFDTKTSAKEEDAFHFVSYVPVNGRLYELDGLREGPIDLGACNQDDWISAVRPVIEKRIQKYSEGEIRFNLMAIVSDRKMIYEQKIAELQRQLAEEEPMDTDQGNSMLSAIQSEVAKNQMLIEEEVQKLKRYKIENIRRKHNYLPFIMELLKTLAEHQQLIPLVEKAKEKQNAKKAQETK
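System: Proteasome-associated human UCH37 deubiquitinase; Input: 0.15 nM proteasome in added enzyme buffer; Also added: Ub-AMC substrate from 1 µM stock; Incubation: 30 min compound-proteasome preincubation then 25 min substrate reaction, room temperature; Detection: fluorescence, ex 355 nm, em 460 nm; Read-out: % inhibition of Ub-AMC cleavage fluorescence; Benchmarks: no-proteasome and no-compound wells.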
T cruzi repl: inhibitors of intracellular T. cruzi growth, primary screen, luminescence, NIH3T3 host cells; T. cruzi beta-gal in NIH3T3, 90 h; inhibition, % (test concentration not listed); 1.4% of 300,000 active;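 active = mean inhibition across valid replicates above about 55%, limit read from the data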;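 also: signal also drops with host cell toxicity which is not excluded here; 0% = plate median of DMSO wells and 100% = zero luminescence signal; higher percent means less beta-gal luminescence so fewer parasites; stock transfer was 50 nL into about 50 µL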
Bfl-1 A1 inh: caspase 3/7 activation in MEF A1-2A-BIM cells, primary screen, A1 inhibitor project, cell-based, luminescence, HTS; Caspase-Glo 3/7 luminescence, 3 h; percent of clofoctol response, vehicle zero; caspase activation, % (concentration not given with the values); 0.066% of 330,000 active; AID 2462, 2010;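 active = over half of replicate activation scores above 10%, or exactly half above 10 with the replicate mean above 10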;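 also: wells of about 30 µL received 50 nL stock; many hits fall short of the cut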
Ecoli rRNA inh: reduced GFP signal of wild-type E. coli, primary screen, bacterial rRNA inhibitor project, GFP/RFP fluorescence, OD600, single point. E. coli WT GFP vs humanized-ribosome RFP mutants, 24 h; hits give low values; DMSO median 0, no signal -100. GFP signal change (wild-type ribosome), % (concentration not given with the values). 1.6% of 350,000 active;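 active = significant combined selectivity score with lowered wild-type GFP, culture density cut under 30%, mutant RFP and density less affected; inactive = any of these conditions unmet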; also: one replicate is shown; some compounds called inactive have numbers as strong as hits
Beta cell apopt: inhibitors of cytokine-induced beta cell apoptosis, primary screen, luminescence. INS-1E cytokine-induced death, ATP luminescence, 48 h; percent of positive-control rescue, neutral wells zero. protection from apoptosis, % (test concentration not listed). 0.8% of 300,000 active;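 active = all replicates at 75% or more, or half of them and the mean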;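 also: 0% = cytokine-treated negative control wells and 100% = positive control rescue; higher means more ATP so stronger rescue from cytokine killing; wells of about 40 µL received 100 nL stock; the first replicate is given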
E coli growth: E. coli growth inhibition, primary screen, OD600. Escherichia coli growth, 23 h; hits give low values. OD600 absorbance (no concentration beside the values). 0.21% of 330,000 active;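 active = OD600 absorbance below the run mean of sample wells minus 3.6 SD, in any replicate, cut at about 0.56 in these data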;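 also: stock transfer was 300 nL into about 60 µL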
AF4-AF9 inh: inhibitors of AF4 peptide binding to AF9, primary screen, biochemical, AlphaScreen, biotin-AF4 peptide, FLAG-AF9, single point. Protein AF-9 (Homo sapiens), P42568. inhibition, % at 10 µM. 0.47% of 350,000 active. AID 651704, 2012;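 active = every replicate reaching a set inhibition limit, whatever the replicate mean, cut at about 25% in these data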;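 also: 0% = plate neutral control median and 100% = total signal loss; the record names both 10 and 1 µM as test concentration; the first replicate is given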
Target sequence (P42568 whole entry, looked up): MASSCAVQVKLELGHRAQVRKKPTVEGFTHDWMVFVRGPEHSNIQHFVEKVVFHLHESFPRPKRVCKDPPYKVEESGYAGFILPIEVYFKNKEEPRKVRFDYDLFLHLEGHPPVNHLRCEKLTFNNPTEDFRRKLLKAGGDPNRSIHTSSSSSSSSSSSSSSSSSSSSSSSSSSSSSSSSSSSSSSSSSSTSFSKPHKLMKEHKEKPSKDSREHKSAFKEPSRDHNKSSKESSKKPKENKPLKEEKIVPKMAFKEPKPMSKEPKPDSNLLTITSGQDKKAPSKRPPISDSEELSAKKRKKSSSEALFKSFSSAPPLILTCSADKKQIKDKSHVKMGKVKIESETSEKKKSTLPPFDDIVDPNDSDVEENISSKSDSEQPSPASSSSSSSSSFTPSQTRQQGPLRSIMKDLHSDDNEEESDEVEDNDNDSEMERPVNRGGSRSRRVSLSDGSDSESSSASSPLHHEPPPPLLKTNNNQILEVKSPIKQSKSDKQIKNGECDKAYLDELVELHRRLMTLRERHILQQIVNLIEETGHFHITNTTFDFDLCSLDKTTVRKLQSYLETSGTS
FGF22 binding: binders of human FGF22 protein, primary screen, FGF22 synaptogenesis inhibitor project, biophysical, thermal shift, single point; calls only at 9.99 µM; AID 651658, 2012; 1.5% of 340,000 active; recombinant FGF22 thermal shift, SYPRO orange fluorescence; percent of sucrose octasulfate shift, DMSO zero; Fibroblast growth factor 22 (Homo sapiens), Q9HCT0;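 active = melting point raised past a set limit in the mean and every replicate; three in four hits are not shown here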
Target sequence (Q9HCT0 whole entry, looked up): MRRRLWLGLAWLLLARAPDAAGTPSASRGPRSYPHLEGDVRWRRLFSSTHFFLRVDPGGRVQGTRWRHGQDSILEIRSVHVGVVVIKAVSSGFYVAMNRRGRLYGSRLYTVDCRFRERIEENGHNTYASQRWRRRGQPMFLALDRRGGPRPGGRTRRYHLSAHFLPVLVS
Ecoli rRNA inh OD600: further read-out of Ecoli rRNA inh, marked with its call; OD600 change, %; measured here: OD600 growth;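 optical density of the mix in the first replicate; 0 = DMSO median and -100 = no signal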
Ecoli rRNA inh RFP: further read-out of Ecoli rRNA inh, marked with its call; RFP signal change, %; measured here: RFP humanized mutant strains;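 first replicate; 0 = DMSO median and -100 = no signal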
The depositor's hits bear a star; i = inactive; · = not tested or not shown.

SMILES	UCH37 DUB inh	T cruzi repl	Bfl-1 A1 inh	Ecoli rRNA inh	Ecoli rRNA inh OD600	Ecoli rRNA inh RFP	Beta cell apopt	E coli growth	AF4-AF9 inh	FGF22 binding
CCN(CC(=O)NC1CCS(=O)(=O)C1)Cc1nc2c(Br)cc(Br)cc2c(=O)[nH]1 (centres undefined)	-1.6	1	1.1	-2	-1	3.2	-2	0.66	0.6	i
CC(C)(C)c1cc(CP(=O)(c2ccccc2)c2ccccc2)cc(C(C)(C)C)c1O	-0.9	40	0.6	-25	-31	-4.8	4	0.68	5.2	i
FC(F)Oc1cccc2cccnc12	4.1	-8	1.5	·	·	·	·	0.69	·	·
CC(C)C[C@H](NC(=O)C1CCC(CNC(=O)[C@@H]2CCCN2C(=O)OC(C)(C)C)CC1)C(=O)O (some centres undefined)	-0.2	-1	-0.6	5	18	-1.9	-1	0.66	-0.8	i
O=C(O)C1CC=CCC1C(=O)c1ccccc1 (centres undefined)	3.0	-12	-0.1	·	·	·	0	0.68	·	·
CCOC(=O)Cc1cnc(NC(=O)CSc2nc(N)cc(=O)[nH]2)s1	4.2	-19	0.6	14	11	0.6	2	0.69	-2.2	·
Cc1cc(C)n2c(SCC(=O)N(CC(C)C)c3c(N)n(CC(C)C)c(=O)[nH]c3=O)nnc2n1	0.1	4	1.1	16	9	0.7	-3	0.72	-0.2	i
CC(C)CCNC(=O)NC(=O)CSc1nnc(-c2ccccc2F)n1N	-0.3	3	0.2	·	·	·	-1	0.64	·	·
CCOC(=O)Cc1csc(NC(=O)CSc2nnc(-c3ccc(F)cc3)o2)n1	1.6	3	0.1	5	10	8.5	·	0.7	-9.4	i
COc1ccc(-n2nc(C(=O)O)nc2-c2ccccc2)cc1	4.8	-12	0.0	·	·	·	-2	0.75	·	·
CCc1cc(=O)oc2cc(C)cc(OCC(=O)NCc3cccnc3)c12	-105	-10	-0.5	-5	-6	-0.2	·	0.68	-0.6	i
NC(=O)CC12CC3CC(C1)CC(CC(N)=O)(C3)C2	-0.5	-10	-0.3	·	·	·	-1	0.73	·	·
CCOC(=O)C1=C(O)/C(=C\c2cccc(OC)c2)N=C1C	3.3	-13	0.6	22	11	1.9	0	0.66	-21	i
CCn1c(SCC(=O)NC2CCCCC2)nnc1-c1ccccc1F	0.8	4	0.2	3	2	0.1	-4	0.64	3.0	i
O=C(O)c1cc(-c2ccccc2)nn1CC1CC(c2cccnc2)=NO1 (centres undefined)	4.9	-20	-0.5	·	·	·	-3	0.7	·	·
CCOC(=O)[C@H]1[C@H]2COc3ccc(OC)cc3[C@@H]2N2C(=O)CN(Cc3ccc(C)cc3)C(=O)[C@@]12C	-0.3	·	0.5	-16	-20	4.2	-4	·	3.4	i
O=C(N=C1SCC(=O)N1c1ccccc1)c1ccco1	0.7	·	-0.4	·	·	·	-6	0.68	·	·
CN(C)CCNC(=O)/C(=C/c1cccc([N+](=O)[O-])c1)NC(=O)c1ccccc1	-0.3	-7	0.8	8	6	3.8	3	0.7	0.8	i
C=CCn1c(SCC(=O)Nc2cc(C)on2)nnc1C1COc2ccccc2O1 (centres undefined)	1.5	13	0.6	·	·	·	4	0.68	0.3	i
COc1ccccc1NS(=O)(=O)c1ccc(O)c(C(=O)OCC(=O)N2CCc3ccccc32)c1	-1.1	-4	0.3	-5	-8	-5.1	3	0.67	0.8	i
Cc1ccc2[nH]c(SCC(=O)N3CCOCC3)nc2c1C	1.0	0	0.6	·	·	·	-3	0.72	·	·
CC(=O)COc1ccc2c(C)c(-c3ccccc3)c(=O)oc2c1	-30	-8	-4.7	-11	-19	-4.4	4	0.65	1.4	i
COc1ccccc1NC(=O)C1=C(C)Nc2nc3ccccc3n2C1c1cccs1 (centres undefined)	-7.8	-55	-0.2	·	·	·	7	0.69	·	·
CCOC(=O)C1Nc2ccc(Br)cc2C2C=CCC12 (centres undefined)	2.8	-8	0.2	1	4	8.7	1	0.71	9.5	i
Cc1ccc(NC(=O)COc2ccc(C3SCCS3)cc2)cc1	1.1	-24	-2.3	·	·	·	3	0.72	-3.7	i

Complete entries, looked up by structure. Order of values: UCH37 DUB inh | T cruzi repl | Bfl-1 A1 inh | Ecoli rRNA inh | Ecoli rRNA inh OD600 | Ecoli rRNA inh RFP | Beta cell apopt | E coli growth | AF4-AF9 inh | FGF22 binding
CCOC(=O)C1=C(O)/C(=C\c2cccc(OC)c2)N=C1C is listed with 3.3 | -13 | 0.6 | 22 | 11 | 1.9 | 0 | 0.66 | -21 | i
Cc1ccc2[nH]c(SCC(=O)N3CCOCC3)nc2c1C is listed with 1.0 | 0 | 0.6 | · | · | · | -3 | 0.72 | · | ·

Next part.
SMILES	UCH37 DUB inh	T cruzi repl	Bfl-1 A1 inh	Ecoli rRNA inh	Ecoli rRNA inh OD600	Ecoli rRNA inh RFP	Beta cell apopt	E coli growth	AF4-AF9 inh	FGF22 binding
C=CCc1cccc(/C=N/NC(=O)c2ccccc2OC)c1O	·	62*	-1.7	-3	0	-0.2	94*	·	1.4	i
COc1cccc(NC(=O)NC2(C(=O)N3CCC(O)CC3)CCCCC2)c1	0.0	-6	0.5	1	6	0.9	1	0.66	-4.5	i
CC(C)[C@H]1COCCS(=O)(=O)N1Cc1ccccc1-c1ccc(C(C)(C)C)cc1	4.4	·	·	12	-2	-2.8	·	0.73	-1.7	i
CCOC(=O)c1sc(NC(=O)C2CC(=O)N(c3ccccc3OC)C2)nc1C (centres undefined)	-0.8	·	0.9	-2	3	0.8	-6	0.66	0.6	i
COc1ccccc1/C=C/C(=O)Nc1cccnc1Cl	-9.8	-15	-4.3	8	5	2.5	-1	0.65	4.1	i
COc1ccc(/C=N/NC(=O)C(O)(c2ccccc2)c2ccccc2)cc1OC	·	-6	1.6	-1	-6	3.2	-9	·	1.1	i
CCc1ccc(-c2cc(C)no2)cc1S(=O)(=O)N1CCC(C)CC1	-0.1	14	1.1	-11	-24	4.1	0	0.68	-4.6	i
CCC1CCCCN1CCCNC(=O)CNC(=O)c1nn(-c2ccc(OC)cc2)c(=O)c2ccccc12 (centres undefined)	1.5	0	0.0	8	12	3.0	-2	0.7	2.9	i
Cc1nc(SCC(=O)NCc2ccccc2)c2c(=O)n(C)c(=O)n(C)c2n1	4.1	-1	0.4	5	20	-2.1	-2	0.75	-6.3	i
C=CCc1c(C)nc(SCCC)[nH]c1=O	1.0	14	-0.2	1	8	-0.4	-7	0.66	-2.3	i
CC(C)c1ccc(C2NC(=S)NC3=C2C(=O)CCC3)cc1 (centres undefined)	8.0	-5	0.3	·	·	·	-7	0.67	·	·
COCC1CCCN(C(=O)c2ccc3nc(Cc4cccc(Cl)c4)oc3c2)C1 (centres undefined)	-0.2	16	-0.7	·	·	·	-5	0.71	0.7	i
CC(C)(C)CN1CCNC(=O)C1CC(=O)NCCc1ccccc1C(F)(F)F (centres undefined)	-20	-12	0.1	-8	-9	4.3	-5	0.67	-1.8	i
Clc1cccc(OCCN2CCCC2)c1	2.3	23	0.3	-3	2	-2.1	0	0.66	-0.4	i
CC(=O)c1cccc(N(CC(=O)NC2CCCC2)C(=O)c2csnn2)c1	1.7	11	0.1	·	·	·	-3	0.65	0.5	i
CCOC(=O)/C(C#N)=N/Nc1c(S(=O)(=O)Cc2ccco2)csc1C(=O)OC	·	6	-0.6	-7	2	-2.6	1	·	4.1	i
COC(=O)C1N[C@@H]([C@@H](NC(=O)COc2ccccc2)C(=O)NCc2ccsc2)SC1(C)C (some centres undefined)	0.8	-14	2.0	·	·	·	-2	·	·	·
CCC(=O)N1CCc2cc(S(=O)(=O)NCCC(=O)N3CCc4ccccc4C3)ccc21	2.8	-19	-0.9	·	·	·	24	0.67	·	·
COc1ccc(CCNC(=O)C2CCCN(S(=O)(=O)c3ccc(OC)cc3)C2)cc1 (centres undefined)	2.6	0	0.5	-5	-3	0.2	-1	0.71	-0.7	i
O=C(c1cccc([N+](=O)[O-])c1)c1ccccn1	4.4	-14	-0.1	8	3	-7.4	-6	0.66	7.0	i
CCOC(=O)C1=C(c2ccccc2)NC(SCC)=C(C#N)C1c1cccnc1 (centres undefined)	3.5	3	0.2	·	·	·	7	0.8	·	·
COc1ccc(CCC(=O)Nc2ncc(C)s2)cc1OC	0.6	0	0.2	0	-9	1.8	0	0.67	-1.0	i
O=C(COC(=O)c1ccccn1)NCc1ccc(Cl)cc1Cl	-1.1	·	-0.4	0	4	-1.7	-4	0.68	1.1	i
COc1ccc(NC(=O)NC(=O)c2ccccc2)cc1	2.0	-13	-7.2	11	9	-1.1	1	0.67	-1.3	i
Cc1ccc(F)cc1CNC(=O)c1cc(COc2ccc3ncccc3c2)on1	-1.0	-1	-0.5	3	5	0.0	32	0.71	-4.3	i
New compounds follow:
SMILES	UCH37 DUB inh	T cruzi repl	Bfl-1 A1 inh	Ecoli rRNA inh	Ecoli rRNA inh OD600	Ecoli rRNA inh RFP	Beta cell apopt	E coli growth	AF4-AF9 inh	FGF22 binding
O=C(/C=C/c1ccccc1Cl)OCC(=O)c1ccc[nH]1	2.9	·	-0.7	-19	-29	-2.7	0	0.62	2.7	i
CC(=O)c1ccc(NC(=O)C(C)Sc2ccccn2)cc1 (centres undefined)	2.2	-25	0.5	-1	-1	-1.4	5	0.69	1.9	i
O=C(Nc1ccc(Cl)cc1)C1CCN(C(=O)c2cccs2)CC1	2.5	4	-0.2	2	-24	-3.1	1	0.64	-1.7	i
COc1ccc(C(=O)C(C)OC(=O)CN2C(=O)c3ccccc3C2=O)cc1 (centres undefined)	1.8	·	-0.3	-3	0	4.2	-3	0.65	0.1	i
O=C(N/N=C/c1ccoc1)c1ccc([N+](=O)[O-])cc1	·	·	0.3	19	21	0.6	-5	·	0.0	i
O=C(c1cc2ncc(Br)cn2n1)N1CCCCC1	3.6	-16	1.6	10	8	1.3	1	0.66	-1.3	i
COc1ccc(/C=C/C(=O)OCc2nc3ccccc3c(=O)[nH]2)c(OC)c1	-4.4	0	0.0	3	6	3.2	-7	0.69	-12	i
CCN(CC)C(=O)CN1CCN(c2ncccn2)CC1	-1.0	-6	-0.7	26	6	0.9	-6	0.7	-8.0	i
O=c1cc(-c2ccccc2)oc2ccc(Br)cc12	0.5	·	-13	5	10	7.3	0	0.72	-1.6	i
CCOC(=O)C1=NN(C(=O)c2ccco2)C2(CC2)C1	1.4	-24	-1.3	7	12	-1.0	-4	0.67	1.3	i
O=C(OC1Cn2c(=O)ccc(=O)n2C1)c1ccccc1	2.1	-25	2.3	·	·	·	-4	0.7	·	·
COc1ccc(NC(=O)/C(C#N)=C\c2ccc(N3CCOCC3)o2)cc1	27*	0	-0.1	24	-8	1.8	6	0.75	6.9	i
Cc1c(C(=O)Nc2ccc(N3CCOCC3)cc2)oc2ccccc12	1.1	-4	-5.7	·	·	·	3	0.67	·	·

These rows are one share of the data; the hit share may differ from the screen's.
